LANA-H2B inh: blockers of LANA interaction with H2A/H2B – biochemical, FP readout, HTS, primary screen; Protein LANA1 (Human herpesvirus 8 type P (isolate GK18)), Q9QR71; inhibition, % (no concentration beside the values); hit rate 0.6% among 320,000; AID 2629, 2010; cell-free LANA-H2A/H2B peptide, fluorescence polarization; in the data active = inhibition mostly above about 10%, no sharp cut-off; inactive = mostly below about 6.7%;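 note: stock transfer was 7.5 nL into about 10 µL; 0% = median of vehicle wells and 100% = median of positive control wells; one replicate is shown; the record names a cut of 25% in any replicate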
Target sequence (Q9QR71 whole entry, looked up): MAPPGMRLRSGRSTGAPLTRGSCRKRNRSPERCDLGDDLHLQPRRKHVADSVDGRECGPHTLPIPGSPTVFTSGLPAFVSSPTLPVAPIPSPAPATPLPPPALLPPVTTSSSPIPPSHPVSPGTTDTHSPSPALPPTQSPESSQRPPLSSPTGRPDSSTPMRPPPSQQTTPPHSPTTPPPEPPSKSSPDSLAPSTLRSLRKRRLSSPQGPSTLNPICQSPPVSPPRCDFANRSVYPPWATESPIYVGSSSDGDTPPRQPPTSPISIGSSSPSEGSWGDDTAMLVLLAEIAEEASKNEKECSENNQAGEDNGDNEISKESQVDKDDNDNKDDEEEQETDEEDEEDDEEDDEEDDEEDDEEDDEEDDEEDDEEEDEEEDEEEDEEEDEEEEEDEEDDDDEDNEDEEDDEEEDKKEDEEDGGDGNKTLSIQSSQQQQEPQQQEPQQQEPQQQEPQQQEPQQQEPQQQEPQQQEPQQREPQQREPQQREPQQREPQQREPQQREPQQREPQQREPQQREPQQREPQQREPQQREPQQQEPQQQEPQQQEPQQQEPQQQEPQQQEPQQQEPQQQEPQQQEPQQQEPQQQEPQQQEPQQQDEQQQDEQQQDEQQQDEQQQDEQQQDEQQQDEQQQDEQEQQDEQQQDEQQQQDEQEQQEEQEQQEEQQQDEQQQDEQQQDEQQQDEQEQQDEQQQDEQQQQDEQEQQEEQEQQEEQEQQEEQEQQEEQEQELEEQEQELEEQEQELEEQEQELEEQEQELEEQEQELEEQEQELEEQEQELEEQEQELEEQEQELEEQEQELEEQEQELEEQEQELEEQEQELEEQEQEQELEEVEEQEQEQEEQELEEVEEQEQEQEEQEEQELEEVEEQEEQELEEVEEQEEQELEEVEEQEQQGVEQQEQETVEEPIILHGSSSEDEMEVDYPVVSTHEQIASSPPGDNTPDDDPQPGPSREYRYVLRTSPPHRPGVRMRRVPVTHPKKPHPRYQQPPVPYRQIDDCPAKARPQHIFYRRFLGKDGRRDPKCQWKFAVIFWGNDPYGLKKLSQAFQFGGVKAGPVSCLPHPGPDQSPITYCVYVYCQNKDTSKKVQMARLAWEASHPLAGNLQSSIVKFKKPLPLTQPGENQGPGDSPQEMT
Beta2AR agonist: beta2AR agonists driving receptor internalization, primary screen, cell-based, FAP fluorogen, flow cytometry. Beta-2 adrenergic receptor (Homo sapiens), P07550. Am2.2-beta2AR cells; reference of the scale not given here. response, % (test concentration not listed). hit rate 0.43% among 340,000. AID 504454, 2011;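 active = response above a set limit, near 3 SD of response in nonfluorescent compounds, cut at about 42% in these data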;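 note: stock transfer was 100 nL into about 11 µL; a reference agonist was the positive control; negative values mostly stem from fluorescent compounds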
A1 inh: caspase 3/7 activation in MEF A1-2A-BIM cells, primary screen, A1 inhibitor project, cell-based, luminescence, HTS. Caspase-Glo 3/7 luminescence, 3 h; percent of clofoctol response, vehicle zero. caspase activation, % (concentration not given with the values). hit rate 0.066% among 330,000;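 active = over half of replicate activation scores above 10%, or exactly half above 10 with the replicate mean above 10; inconclusive = replicate mean below 10 yet half the replicates above 10; inactive = over half of replicates below 10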;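 note: wells of about 30 µL received 50 nL stock; many hits fall short of the cut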
Beta apoptosis: inhibitors of cytokine-induced beta cell apoptosis, primary screen, luminescence. INS-1E cytokine-induced death, ATP luminescence, 48 h; percent of positive-control rescue, neutral wells zero. protection from apoptosis, % (concentration not given with the values). hit rate 0.8% among 300,000. AID 435005, 2010;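 active = all replicates at 75% or more, or half of them and the mean; inconclusive = half reach 75% but not the mean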;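 note: 0% = cytokine-treated negative control wells and 100% = positive control rescue; higher means more ATP so stronger rescue from cytokine killing; wells of about 40 µL received 100 nL stock; the first replicate is given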
Calb FLC: C. albicans growth inhibition with fluconazole, primary screen, CaCi-2 strain, Alamar Blue fluorescence; C. albicans CaCi-2 (fluconazole-resistant clinical isolate) + fluconazole, 48 h; growth inhibition, % (no concentration beside the values); hit rate 0.57% among 300,000;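 active = most replicates above 75%; inconclusive = exactly half above 75%; inactive = most below 75%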;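 note: all wells also contain fluconazole at 8 µg/ml as a sub-toxic cotreatment; 0% = median of DMSO wells and 100% = median of geldanamycin control wells; wells of about 8 µL received 7.5 nL stock; the first replicate is given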
RanGTP-Impb inh: inhibitors of RanGTP-importin-beta interaction, primary screen, biochemical, FRET, CFP-Ran, YFP-importin-beta, homogeneous; cell-free CFP-Ran/YFP-importin-beta FRET ratio; inhibition, % (test concentration not listed); AID 2216, 2009; hit rate 1.1% among 300,000; Ran GTPase (GTP-bound) - importin-beta complex;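 active = most replicates above 15%; inconclusive = exactly half above 15%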;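 note: 0% = DMSO wells and 100% = Ran loaded with GDP instead of GTP; wells of about 40 µL received 100 nL stock; the first replicate is given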
T cruzi inh: inhibitors of intracellular T. cruzi growth, primary screen, luminescence, NIH3T3 host cells; T. cruzi beta-gal in NIH3T3, 90 h; inhibition, % (no concentration beside the values); hit rate 1.4% among 300,000; AID 1885, 2009;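 active = mean inhibition across valid replicates above about 55%, limit read from the data; inconclusive = mean below that limit but half or more replicates reach it; inactive = mean below it, under half of replicates reach it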;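 note: signal also drops with host cell toxicity which is not excluded here; 0% = plate median of DMSO wells and 100% = zero luminescence signal; higher percent means less beta-gal luminescence so fewer parasites; stock transfer was 50 nL into about 50 µL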
UCH37 DUB inh: inhibitors of human UCH37 deubiquitinase, primary screen, biochemical, Ub-AMC cleavage, fluorescence; Ubiquitin carboxyl-terminal hydrolase isozyme L5 (Homo sapiens), Q9Y5K5; purified proteasome/UCH37; inhibition, % (no concentration beside the values); hit rate 0.33% among 330,000; AID 588478, 2011;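 active = mean of two replicates above 20%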;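 note: 0% = compound-free wells with enzyme and 100% = wells lacking proteasome; stock transfer was 100 nL into about 20 µL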
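Material: Human UCH37 enzyme supplied as purified proteasome complex | Schedule: 30 min compound-proteasome preincubation then 25 min substrate reaction, room temperature | Detection: AMC fluorescence from Ub-AMC cleavage, excitation 355 nm, emission 460 nm | Benchmarks: Wells without proteasome as full block, compound-free enzyme plus substrate as uninhibited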
* hit, by the source's call; u = inconclusive; x = not tested or not shown.

SMILES | LANA-H2B inh | Beta2AR agonist | A1 inh | Beta apoptosis | Calb FLC | RanGTP-Impb inh | T cruzi inh | UCH37 DUB inh
O=C(Oc1nsnc1N1CCOCC1)N(c1ccccc1)c1ccccc1 | 4.0 | -1 | 0.3 | 5 | -3 | -2.5 | 6 | 5.4
O=c1[nH]ncc(NCCc2ccccc2)c1Cl | -2.5 | 1 | -1.2 | 2 | -3 | -1.1 | -13 | -1.1
CC(C)CCOc1ccc(CO[C@@H]2[C@H]3OC(C)(C)O[C@H]3O[C@@H]2C(O)CO)cc1 (stereo partly specified) | 0.3 | 1 | 0.6 | -2 | 2 | -7.2 | -4 | 4.7
COc1ccc(C2(O)CN(c3ccccc3)C3=[N+]2CCS3)cc1OC (stereo unspecified) | 2.1 | 2 | 0.2 | 0 | -2 | -0.9 | -4 | 0.8
O=C(COC(=O)c1cc(F)c(F)cc1Cl)NC1CC1 | 1.7 | 1 | 0.6 | 0 | -1 | -0.2 | -49 | 1.1
Cc1ccsc1/C=C1/C(=O)NN(c2ccccc2)C1=O | 0.1 | -6 | -2.4 | 3 | -64 | x | -32 | 10
CCN1CCN(CNC(=O)c2cnccn2)CC1 | 0.8 | 3 | 0.0 | -1 | 25 | 8.5 | -19 | -0.4
CC(=O)N1CCc2c(sc3c2c(=O)n(Cc2ccccc2)c(=O)n3CC(=O)NCC2CCCO2)C1 (stereo unspecified) | -5.9 | -3 | 0.9 | -4 | -8 | 2.1 | 5 | -0.4
CCc1nc2oc3ccccc3c(=O)c2c(=O)n1CCOC | -36 | 0 | 0.8 | 0 | -2 | 3.8 | -7 | 0.4
O=C(OCC#CCSc1nnc(-c2cccc3ccccc23)o1)c1ccc(Br)cc1 | -3.5 | 18 | 0.4 | 2 | x | x | x | 2.4
Cc1cccc(NC(=O)c2nc[nH]c2C(=O)N(C)Cc2ccccc2)c1 | -1.8 | -4 | 0.5 | -1 | x | x | x | 2.8
CCCCc1nc(SCc2ccc([N+](=O)[O-])cc2)n[nH]1 | 1.6 | 7 | 0.3 | -7 | -6 | -2.9 | -11 | 1.6
Cc1noc(C)c1COC(=O)Cc1ccc(Cl)cc1 | 5.7 | -7 | -0.3 | 3 | -5 | 6.9 | 0 | 0.2
Cc1ccc(Cn2c(=N)c(C(=O)NC3CCCC3)cc3c(=O)n4ccccc4nc32)cc1 | 13 | -2 | -0.3 | 0 | -1 | -0.7 | 27 | x
Cc1cc2nc(C)c(Cc3ccccc3)c(=O)n2[nH]1 | -1.4 | -11 | 0.3 | -8 | -2 | 0.6 | 33 | -6.6
Cc1ccsc1/C=N/NC(=O)C1C(=O)NCC1c1ccccc1 (stereo unspecified) | -3.4 | x | 0.4 | 4 | -4 | -1.6 | -7 | x
CC1(C(=O)CSc2n[nH]c(-c3ccccc3Cl)n2)CCC(=O)O1 (stereo unspecified) | 0.4 | x | 0.0 | -7 | 1 | 1.3 | -6 | x
COC(=O)c1ccccc1NC(=O)CC(NCc1ccccc1)C(=O)O (stereo unspecified) | -1.7 | x | 0.4 | -1 | 5 | 1.5 | -15 | -1.3
O=C(NCc1cccnc1)C12CC3CC(CC(Cl)(C3)C1)C2 | -1.6 | 2 | 0.2 | -1 | -57 | 2.2 | -4 | 0.9
COc1ccc(C(=O)NC(=S)Nc2cccc(NC(=O)c3ccco3)c2)cc1[N+](=O)[O-] | -2.4 | 6 | 0.0 | 5 | 2 | -3.9 | -14 | 1.8
O=C(Cc1cccs1)Nc1ccc(S(=O)(=O)N2CCCC2)cc1 | 0.8 | -4 | -0.8 | 2 | 2 | u | 2 | 0.4
Cc1nn(S(=O)(=O)N(C)C)c(C)c1CN1C(=O)c2ccccc2C1=O | 8.0 | -4 | 0.3 | -4 | -12 | -6.7 | 6 | 2.0
O=C1CCC(C(=O)N2CCCC(N3CCN(c4cccc(C(F)(F)F)c4)CC3)C2)=NN1 (stereo unspecified) | 1.1 | -4 | -2.1 | 0 | 68 | 5.8 | -3 | -4.2
Nn1c(SCC(=O)Nc2ccc(N3CCOCC3)cc2)nnc1C1CC1 | -3.0 | -9 | 0.2 | 2 | x | x | x | 2.0
CCc1n(CC(O)COCc2ccccc2)c2ccccc2[n+]1C (stereo unspecified) | -1.0 | -6 | 0.1 | -6 | 9 | -1.8 | 2 | 5.0
CC1CCN(C(=O)c2ccccc2NC(=O)c2cccs2)CC1 | 6.5 | 5 | -1.4 | -2 | -5 | 3.6 | -6 | 6.1
CCOc1ccc(S(=O)(=O)N2CCC(C(=O)OCc3ccc(OC)cc3)CC2)cc1 | -0.4 | -7 | 0.2 | x | -3 | 1.5 | -1 | -0.5
NC(=O)N=Nc1c(O)n(Cc2ccccc2)c2ccc(Br)cc12 | 0.3 | -5 | 0.8 | 0 | 7 | -1.1 | 21 | 1.0
CCOC(=O)c1ccc(NC(=O)CSc2nnc(-c3ccncc3)n2C)cc1 | -8.1 | -3 | 2.4 | -1 | 1 | 4.1 | 0 | 1.2
O=C(NCc1ccco1)C1CCN(C(=O)c2cc3sccc3n2Cc2ccc(F)cc2)CC1 | -3.4 | 11 | -0.6 | -4 | 28 | -0.2 | 11 | 5.5
CCC(C)n1c(SCC(=O)NC(=O)Nc2ccc3c(c2)OCCO3)nc2ccccc2c1=O (stereo unspecified) | -0.9 | 6 | -0.4 | 2 | -10 | 6.9 | 66* | 1.6
FC(F)(F)c1ccc(Cl)c(-n2c(-c3cc(C4CC4)[nH]n3)n[nH]c2=S)c1 | 2.6 | 0 | 1.5 | -6 | 24 | 3.6 | -22 | 6.3
O=C(CNc1cc([N+](=O)[O-])ccc1NCCO)Nc1cccc(S(=O)(=O)N2CCCCC2)c1 | 5.0 | 9 | 2.9 | 0 | x | x | x | 4.0
S=C(Cc1ccc(Cl)cc1)N1CCOCC1 | -4.8 | 1 | 0.5 | -8 | -3 | 1.4 | -16 | 1.6
CCCCOC(=O)C1CCCC(C(=O)OCCCC)N1 (stereo unspecified) | -3.7 | 0 | 0.8 | -4 | 2 | -2.9 | 7 | 0.1
O=C(CCNS(=O)(=O)c1ccccc1F)OCc1ccccc1Cl | 0.3 | 1 | -0.2 | -5 | x | x | x | -1.7
O=C(CSc1n[nH]c(-c2ccccc2F)n1)Nc1cc(F)ccc1F | 1.0 | -4 | -0.4 | -1 | x | x | x | -0.7
O=C1NC(=Nc2ccc(O)cc2)S/C1=C\C=C\c1ccco1 | 6.9 | 22 | 0.1 | 0 | 12 | 2.1 | 6 | 13
O=C(c1cccs1)N1CCc2ccccc21 | -3.0 | -2 | -9.6 | 2 | -19 | 0.2 | -10 | 5.1
CCOc1ccc(/C=C2\SC(=S)NC2=O)cc1OC | -3.6 | 4 | 0.5 | 10 | -5 | 1.0 | -3 | 12
CCOc1ccc(Cc2nc(C)c(CC(=O)N3CCOCC3)c(=O)[nH]2)cc1 | 0.1 | 0 | 0.7 | 0 | -6 | -3.2 | -1 | 1.9
CC(C(=O)NC(=O)NC1CCCCC1)N(C)CC(=O)Nc1ccc(F)c(F)c1F (stereo unspecified) | 3.2 | 5 | 0.6 | 8 | -11 | -2.9 | 14 | -0.4
CC(=O)Nc1ccc(Sc2ccccc2C(=O)Nc2ccc(F)cc2)cn1 | 4.5 | 28 | -0.4 | -4 | -10 | 0.1 | -13 | 2.3
CCn1cc(C(=O)O)c(=O)c2cc(F)c(N/N=C/c3ccccc3)cc21 | 1.8 | -3 | -0.6 | 5 | -10 | 1.7 | 3 | x
CCc1cccc(CC)c1NC(=O)C1CCN(C(=O)c2ccco2)CC1 | 1.5 | -5 | -0.2 | -7 | -5 | -1.5 | 1 | 3.8
Cc1nc2ccccc2c2oc(C(=O)NCC3CCCO3)cc12 (stereo unspecified) | 5.9 | -13 | -0.1 | 7 | 16 | 4.8 | -12 | 5.8
CCOC(=O)c1c(NC(=O)COC(=O)CC(NC(C)=O)c2ccccc2)sc(C(=O)NC)c1C (stereo unspecified) | 5.2 | -13 | 1.0 | -6 | x | -2.1 | 5 | x
CCNS(=O)(=O)c1ccc(NC(=O)CC(C)c2ccccc2)cc1 (stereo unspecified) | -3.9 | 6 | 0.1 | -1 | -13 | 1.7 | -15 | 2.1
COC(=O)C(Cc1ccccc1)NC(=O)CC(C)CC(=O)Nc1ccc(OC)cc1OC (stereo unspecified) | 2.6 | 12 | -0.4 | x | 53 | -2.5 | 7 | 4.6
Cc1cccc(C(=O)N2CCN(Cc3nc4sc5c(c4c(=O)[nH]3)CCCC5)CC2)c1 | 0.6 | -12 | 0.0 | 0 | 13 | 5.1 | 16 | 2.3

The results go on:
SMILES | LANA-H2B inh | Beta2AR agonist | A1 inh | Beta apoptosis | Calb FLC | RanGTP-Impb inh | T cruzi inh | UCH37 DUB inh
O=C(N1CCc2[nH]c3ccccc3c2C1)C(F)(F)F | -3.8 | -8 | 0.5 | 1 | -9 | 3.5 | -1 | -46
COc1ccc(NC(=O)CC2SC(N3CCOCC3)=NC2=O)cc1OC (stereo unspecified) | -338 | -2 | -1.0 | -4 | x | x | x | 5.0
COc1cccc2cc(C(=O)NCc3ccco3)c(=Nc3ccc(C(=O)O)cc3)oc12 | 0.2 | 10 | -0.2 | -4 | 11 | 7.8 | 4 | 6.9
COc1ccc(CC(=O)OCC(=O)NCc2ccc(F)cc2)cc1 | -1.8 | 8 | -0.4 | 6 | x | x | x | 0.2
CCOc1c2ccc(C(=O)NCc3ccc4c(c3)OCO4)cc2nn1CCOC | -5.0 | -1 | 0.4 | 3 | -10 | -3.1 | -10 | -60
COc1ccc(NC(=O)CSc2ccc3c(c2)OCCO3)cc1 | -4.1 | -3 | 0.9 | -1 | x | x | x | 3.0
Cc1ccccc1NS(=O)(=O)c1cc(S(C)(=O)=O)ccc1C | -2.4 | 3 | 1.3 | -8 | 6 | 3.6 | -12 | 3.2
CCCCCCC(=O)Oc1cccc(N2C(=O)C3CCCCC3C2=O)c1 (stereo unspecified) | -3.6 | -6 | 1.1 | -2 | 8 | -1.0 | -16 | 4.3
CCCCN=C1NN=C(c2ccc(C)c(C)c2)CS1 | -0.8 | -2 | -0.8 | x | -3 | -4.2 | 15 | 5.1
CCc1ccc(N2C(=O)CC(N3CCN(Cc4ccc5c(c4)OCO5)CC3)C2=O)cc1 (stereo unspecified) | -0.7 | -2 | 0.2 | 1 | 4 | -10 | 40 | 6.8
CCOC(=O)c1cnc2c(-c3ccccc3)cnn2c1C | 4.3 | -8 | -3.4 | -6 | 12 | -3.0 | -21 | 3.4
